From PubChem
Beta cell apopt: beta cell apoptosis inhibition | INS-1E cytokine-induced death, ATP luminescence, 48 h; percent of positive-control rescue, neutral wells zero | protection from apoptosis, % (concentration not given with the values) | 0.8% of 300,000 active | AID 435005;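 active = all replicates at 75% or more, or half of them and the mean; inconclusive = half reach 75% but not the mean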;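 note: 0% = cytokine-treated negative control wells and 100% = positive control rescue; higher means more ATP so stronger rescue from cytokine killing; wells of about 40 µL received 100 nL stock; the first replicate is given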
RanGTP-Imp inh: inhibitors of RanGTP-importin-beta interaction, primary screen, biochemical, FRET, CFP-Ran, YFP-importin-beta, homogeneous; cell-free CFP-Ran/YFP-importin-beta FRET ratio; inhibition, % (concentration not given with the values); 1.1% of 300,000 active;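 active = most replicates above 15%; inconclusive = exactly half above 15%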;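 note: 0% = DMSO wells and 100% = Ran loaded with GDP instead of GTP; wells of about 40 µL received 100 nL stock; the first replicate is given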
T cruzi repl: blocks replication of Trypanosoma cruzi; T. cruzi beta-gal in NIH3T3, luminescence, 90 h; inhibition, % (no concentration beside the values); 1.4% of 300,000 active; AID 1885;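 active = mean inhibition across valid replicates above about 55%, limit read from the data; inconclusive = mean below that limit but half or more replicates reach it; inactive = mean below it, under half of replicates reach it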;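 note: signal also drops with host cell toxicity which is not excluded here; 0% = plate median of DMSO wells and 100% = zero luminescence signal; higher percent means less beta-gal luminescence so fewer parasites; stock transfer was 50 nL into about 50 µL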
Ecoli rRNA inh: inhibitors of bacterial rRNA selective over humanized ribosomes | E. coli WT GFP vs humanized-ribosome RFP mutants, fluorescence, 24 h; hits give low values; DMSO median 0, no signal -100 | GFP signal change (wild-type ribosome), % (no concentration beside the values) | 1.6% of 350,000 active | AID 720706;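 active = significant combined selectivity score with lowered wild-type GFP, culture density cut under 30%, mutant RFP and density less affected; inactive = any of these conditions unmet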; note: one replicate is shown; some compounds called inactive have numbers as strong as hits
Bfl-1 A1 inh: inhibitors of the anti-apoptotic protein A1, read as caspase activation | MEF A1-2A-BIM cells, Caspase-Glo 3/7 luminescence, 3 h; percent of clofoctol response, vehicle zero | caspase activation, % (test concentration not listed) | 0.066% of 330,000 active | AID 2462;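 active = over half of replicate activation scores above 10%, or exactly half above 10 with the replicate mean above 10; inconclusive = replicate mean below 10 yet half the replicates above 10; inactive = over half of replicates below 10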;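 note: wells of about 30 µL received 50 nL stock; many hits fall short of the cut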
Vif TR-FRET: HIV-1 Vif–A3G interaction blockers – biochemical, TR-FRET, GST-Vif 1-94, biotin-A3G peptide, dose response retest, primary screen (AID 1117319); inhibition, %, or IC50 in µM where a hit was titrated; TR-FRET GST-Vif / biotin-A3G peptide binding; higher % means a stronger effect; test concentration not given here; strong numbers were not always called active; 0.57% of 260,000 active;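 active = above the screen mean plus three standard deviations and confirmed in dose response; inconclusive = results disagree or hit not tested in dose response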;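 note: Vif residues 1-94 fused to GST binding biotinylated APOBEC3G peptide 110-148; 0% = full assay without inhibitor and 100% = GST in place of GST-Vif; retest series ran down from 100 µM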
MLL AF4-AF9 inh: blocks AF4 peptide binding to human AF9. inhibition, % at 10 µM. 0.47% of 350,000 active. AlphaScreen, biotin-AF4 peptide binding to FLAG-AF9. P42568;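 active = every replicate reaching a set inhibition limit, whatever the replicate mean, cut at about 25% in these data; inconclusive = mean inhibition reaches that limit but some replicates miss it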;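 note: 0% = plate neutral control median and 100% = total signal loss; the record names both 10 and 1 µM as test concentration; the first replicate is given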
Target sequence (P42568 whole entry, looked up): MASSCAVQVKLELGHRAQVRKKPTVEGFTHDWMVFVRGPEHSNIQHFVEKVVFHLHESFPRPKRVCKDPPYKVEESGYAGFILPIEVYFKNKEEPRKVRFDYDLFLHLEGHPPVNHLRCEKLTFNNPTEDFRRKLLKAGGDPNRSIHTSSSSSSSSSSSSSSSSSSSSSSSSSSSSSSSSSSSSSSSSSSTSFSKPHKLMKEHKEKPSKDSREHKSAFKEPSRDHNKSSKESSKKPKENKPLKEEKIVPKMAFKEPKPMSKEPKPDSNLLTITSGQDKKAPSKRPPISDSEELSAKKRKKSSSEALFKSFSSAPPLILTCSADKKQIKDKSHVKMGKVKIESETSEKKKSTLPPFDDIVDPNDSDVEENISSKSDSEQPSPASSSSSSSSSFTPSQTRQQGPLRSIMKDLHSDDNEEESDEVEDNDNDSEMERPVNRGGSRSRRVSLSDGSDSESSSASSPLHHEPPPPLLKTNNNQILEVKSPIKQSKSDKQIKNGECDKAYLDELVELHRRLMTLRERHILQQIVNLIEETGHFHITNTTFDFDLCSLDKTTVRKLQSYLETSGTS
Calb FLC: C. albicans growth modulation with fluconazole. C. albicans CaCi-2 (fluconazole-resistant clinical isolate) + fluconazole, Alamar Blue growth, 48 h. growth inhibition, % (no concentration beside the values). 0.57% of 300,000 active. AID 1979;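 active = most replicates above 75%; inconclusive = exactly half above 75%; inactive = most below 75%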;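 note: all wells also contain fluconazole at 8 µg/ml as a sub-toxic cotreatment; 0% = median of DMSO wells and 100% = median of geldanamycin control wells; wells of about 8 µL received 7.5 nL stock; the first replicate is given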
Ecoli rRNA inh OD600: further read-out of Ecoli rRNA inh, marked with its call; OD600 change, %; measured here: OD600 growth;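 optical density of the mix in the first replicate; 0 = DMSO median and -100 = no signal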
Ecoli rRNA inh RFP: also measured in Ecoli rRNA inh; calls as there; RFP signal change, %; measured here: RFP humanized mutant strains;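 first replicate; 0 = DMSO median and -100 = no signal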
Active calls of the source: *; ? = inconclusive; / = not tested or not shown; & = joins results of further samples.

SMILES	Beta cell apopt	RanGTP-Imp inh	T cruzi repl	Ecoli rRNA inh	Ecoli rRNA inh OD600	Ecoli rRNA inh RFP	Bfl-1 A1 inh	Vif TR-FRET	MLL AF4-AF9 inh	Calb FLC
CC(=O)Nc1ccc(NC(=O)COC(=O)c2ccc([N+](=O)[O-])o2)cc1	-8	/	/	-11	-7	-1.6	1.7	/	0.7	/
COCCCN(C(=S)Nc1ccc(OC)cc1)C(C)c1ccncc1 (stereo not given)	-1	0.8	-8	15	2	-6.2	0.5	-13%	4.0	-5
COCCNC(=O)CCC(=O)NNc1nc2ccccc2c2nc(-c3ccccc3)nn12	0	2.3	-15	1	25	10	0.1	16%	-5.9	-6
Cc1ccc(N2CCC(N3CCN(C4CCCCC4)C(CCO)C3)CC2)cc1 (stereo not given)	-2	-21	-7	/	/	/	0.1	23%	/	9
CCOC(=O)N1CCC(NC(=O)c2cc(C(=O)NC3CCN(Cc4ccccc4)CC3)ccc2CO)CC1	-2	?	7	0	1	-0.4	0.5	8%	1.6	42
CCC1(c2ccc(F)cc2)NC(=O)N(CC(=O)N2CCN(S(=O)(=O)c3ccc(Cl)cc3)CC2)C1=O (stereo not given)	-1	?	2	-4	-1	3.1	-0.2	2%	-0.5	-6
Cc1ccc(C(=O)NCC2CCCO2)cc1S(=O)(=O)N1CCCCC1 (stereo not given)	-5	0.0	5	3	-18	-1.0	-0.2	1%	-0.4	3
Cc1ccc(F)cc1NC(=O)C12CC3CC(C1)CC(n1cnc([N+](=O)[O-])n1)(C3)C2	1	-1.3	48	/	/	/	0.5	-6%	/	5
O=C(Nc1ccccc1)ON=C1CCCC1	-1	4.1	17	15	13	2.0	?	/	-2.8	8
CN(CP(=O)(O)CCc1ccccc1)S(C)(=O)=O	/	11	-14	/	/	/	0.3	6%	/	-2
NC(=O)c1ccccc1OCC(=O)NS(=O)(=O)c1ccccc1	0	5.1	5	/	/	/	0.2	-5%	/	21
Cc1nn(-c2ccccc2)c(C)c1/C=N/Nc1nc2ccccc2[nH]1	36	?	66*	-14	-16	-3.4	-6.4	/	19	-16
CCn1ccnc1CN(C)Cc1cn(-c2cc(C)ccc2C)nc1-c1ccccc1	-5	1.0	10	-47	-77	-13	1.0	4%	?	-3
O=C(Nc1nnc(-c2ccc(F)cc2)s1)c1ccco1	-6	4.4	-7	-1	-3	-3.7	-0.1	-8%	-0.3	0
CCCCC(C(=O)NCCC(C)C)N(CCCN1CCOCC1)C(=O)c1snc(C(N)=O)c1N (stereo not given)	-1	1.1	15	/	/	/	-0.2	6%&-5%	/	?

Given in markdown: entries from further up
| SMILES | Beta cell apopt | RanGTP-Imp inh | T cruzi repl | Ecoli rRNA inh | Ecoli rRNA inh OD600 | Ecoli rRNA inh RFP | Bfl-1 A1 inh | Vif TR-FRET | MLL AF4-AF9 inh | Calb FLC |
| --- | --- | --- | --- | --- | --- | --- | --- | --- | --- | --- |
| CC(=O)Nc1ccc(NC(=O)COC(=O)c2ccc([N+](=O)[O-])o2)cc1 | -8 | / | / | -11 | -7 | -1.6 | 1.7 | / | 0.7 | / |
| COCCCN(C(=S)Nc1ccc(OC)cc1)C(C)c1ccncc1 (stereo not given) | -1 | 0.8 | -8 | 15 | 2 | -6.2 | 0.5 | -13% | 4.0 | -5 |
| COCCNC(=O)CCC(=O)NNc1nc2ccccc2c2nc(-c3ccccc3)nn12 | 0 | 2.3 | -15 | 1 | 25 | 10 | 0.1 | 16% | -5.9 | -6 |

Going on with the list.
SMILES	Beta cell apopt	RanGTP-Imp inh	T cruzi repl	Ecoli rRNA inh	Ecoli rRNA inh OD600	Ecoli rRNA inh RFP	Bfl-1 A1 inh	Vif TR-FRET	MLL AF4-AF9 inh	Calb FLC
Cn1cc(S(=O)(=O)N2CCCC2)cc1C(=O)N1CCN(c2cccc(Cl)c2)CC1	-3	3.6	7	-5	-22	-0.5	0.4	/	-5.8	-5
Brc1cccc(-c2nnc3sc(CN4CCCCC4)cn23)c1	-4	0.9	-1	7	15	-5.5	2.5	-1%	1.5	46
O=C(CSc1nnc(-c2ccccc2)c(-c2ccccc2)n1)NCc1ccco1	-7	3.1	20	/	/	/	-0.3	?	/	56
CS(=O)(=O)c1ccc(CNC(=O)C2(C(F)(F)F)CC(CCCO)CCCO2)cc1 (stereo not given)	5	-0.6	5	6	1	-2.0	-0.4	/	-1.1	6
CCN(CC)S(=O)(=O)c1cc(NC(=O)CSc2nc3c(cc2C#N)C(=O)CC(C)(C)C3)ccc1C	7	4.3	45	/	/	/	-0.2	-34%	/	3
O=S(=O)(c1ccccc1)N1CCN(C(=S)Nc2ccc(F)cc2)CC1	/	?	-56	/	/	/	1.0	6%	/	13
COc1ccccc1NC(=O)CC(c1ccc(OC(C)C)cc1)c1ccccc1OC (stereo not given)	4	0.2	29	/	/	/	-0.5	/	/	3
O=C1NC(=O)C2C1C(c1ccc([N+](=O)[O-])cc1)=NN2Cc1ccccc1 (stereo not given)	-1	0.5	-6	14	13	1.8	-0.4	/	0.9	2
CNC(=O)c1cccc(NC(=O)CCCNC(=O)c2ccc(Cl)cc2)c1	-6	2.1	-12	1	7	-0.3	1.0	3%	-19	7
COc1ccc(N2CCN(C(=O)c3ccc(-c4ccccc4)cc3)CC2)cc1	-9	2.6	-9	12	9	-0.1	-0.1	-15%	-2.3	-9
CCOCCCNC(=O)CN1C(=O)COc2ccc(S(=O)(=O)N3CCC(C)CC3)cc21	5	3.7	10	/	/	/	0.3	/	/	-5
CCC1CCCCN1C(=O)c1cc(COc2ccc(-n3cncn3)cc2)on1 (stereo not given)	104*	-1.4	7	-8	-2	4.2	-0.1	3%	-4.6	2
CCOc1cc(/C=N/NC(=O)C(O)(c2ccccc2)c2ccccc2)ccc1OC(=O)c1ccco1	-4	6.1	-1	7	0	5.6	1.2	/	-14	-7
Cc1ccccc1Cc1c(C)nc2c(C(=O)NCc3ccc4c(c3)OCO4)cnn2c1C	4	0.0	29	7	-2	7.7	0.2	70%	-51	0
Cc1nc(N2CCN(c3ccccc3F)CC2)[nH]c(=O)c1C	/	2.3	-13	21	20	1.6	0.9	-3%	-3.3	2
CC1CCCCN1C(=O)CNCc1ccc(F)cc1 (stereo not given)	-4	0.9	-7	11	3	-0.4	-0.7	-3%	0.1	-8
Cc1cccn2cc(CCNS(=O)(=O)c3ccc([N+](=O)[O-])cc3)nc12	-3	-1.9	6	-4	4	-2.2	0.0	?	6.2	9
COc1ccc(-c2ccc(C(=O)O)c(=O)[nH]2)cc1	-6	?	0	7	5	1.3	-2.1	-3%	-2.9	-4
Cn1cnnc1SCC(=O)Nc1nc(-c2ccccc2)cs1	-2	-3.1	-17	-17	-15	1.7	-0.6	1%	-1.4	?
COc1ccc(C(=O)N2CCCC2(C#N)c2ccccc2)cc1[N+](=O)[O-] (stereo not given)	2	0.5	-7	4	6	-2.3	0.6	2%	1.2	/
O=C(NCCC1CCCCN1S(=O)(=O)c1ccccc1)C(=O)NCCN1CCOCC1 (stereo not given)	-4	0.3	0	10	12	-1.5	-0.4	-5%	-14	0
Cc1c(Cl)cccc1N=C1SCCN1C(=O)CN1C(=O)NC2(CCCC2)C1=O	-9	-0.5	-6	-10	-14	1.2	0.2	-9%	-16	-4
C=CCn1c(C(C)NC(=O)COC)nc2ccccc21 (stereo not given)	-1	-0.9	3	1	9	8.6	0.2	-4%	-2.5	4
COc1nc(-c2ccc(Cl)cc2)nnc1C	1	0.1	-4	12	14	1.4	-3.4	-6%	-3.9	24
O=C(NC1CCCCC1)C(c1ccccn1)N(C(=O)Cc1cccs1)c1ccc(Cl)cc1 (stereo not given)	4	7.4	14	/	/	/	0.7	28%	/	1
COC(=O)c1ccc(OC(=O)c2cccnc2SC)cc1	-3	?	-2	0	10	-0.2	0.3	/	-2.1	34
Fc1ccc(C(c2nnnn2Cc2ccco2)N2CCN(C3CCCCC3)CC2)cc1 (stereo not given)	/	2.9	-15	/	/	/	-1.4	3%	/	-17
O=C(O)c1[nH]c2ccccc2c1NS(=O)(=O)Cc1ccccc1	-4	-1.9	-9	/	/	/	2.4	6%	/	-12
COCCCN(C(=O)Nc1ccccc1)C(C)c1ccncc1 (stereo not given)	-2	-2.3	-10	6	12	0.2	?	2%	-4.2	-2
Cc1cc(NC(=O)CSc2nc(-c3ccccc3)nc3c2c(=O)n(C)c(=O)n3C)no1	1	6.2	0	2	-6	-2.4	-0.1	-7%	5.6	3

Two entries from above, set out differently.
Results follow in this order: Beta cell apopt | RanGTP-Imp inh | T cruzi repl | Ecoli rRNA inh | Ecoli rRNA inh OD600 | Ecoli rRNA inh RFP | Bfl-1 A1 inh | Vif TR-FRET | MLL AF4-AF9 inh | Calb FLC
COC(=O)c1ccc(OC(=O)c2cccnc2SC)cc1
→ -3 | ? | -2 | 0 | 10 | -0.2 | 0.3 | / | -2.1 | 34
O=C(NCCC1CCCCN1S(=O)(=O)c1ccccc1)C(=O)NCCN1CCOCC1 (stereo not given)
→ -4 | 0.3 | 0 | 10 | 12 | -1.5 | -0.4 | -5% | -14 | 0

The results go on:
SMILES	Beta cell apopt	RanGTP-Imp inh	T cruzi repl	Ecoli rRNA inh	Ecoli rRNA inh OD600	Ecoli rRNA inh RFP	Bfl-1 A1 inh	Vif TR-FRET	MLL AF4-AF9 inh	Calb FLC
Cc1cc(OC(=O)c2ccc(F)cc2)c([N+](=O)[O-])c(=O)[nH]1	2	-3.1	-2	6	19	3.6	-0.3	6%	0.5	-5
CC(=O)Nc1sc2c(c1C#N)CCCC2	1	-0.2	-22	/	/	/	1.1	4%	/	-7
Cc1ccc(-c2nnc(SCC(=O)N/N=C/c3cccs3)n2-c2ccc(C)cc2)cc1	4	4.9	13	/	/	/	-1.2	/	/	-36
CCOC(=O)C1(Cc2ccc(OC)cc2)CCN(S(C)(=O)=O)CC1	-7	3.8	-13	5	16	3.8	-0.6	3%	-0.4	-9
COc1cc(OC)cc(C(=O)N[C@H](C(=O)NCc2ccc(F)cc2)C(C)C)c1	-8	-0.2	5	-1	1	3.7	0.4	7%	-0.6	-2
CCC(Sc1nc(C)cc(=O)[nH]1)C(=O)Nc1nc2c(s1)CCCC2 (stereo not given)	-2	?	-10	/	/	/	0.6	2%	/	-8
COc1ccc(CCNc2nc(-c3ccc(F)cc3)c(CC(=O)O)s2)cc1OC	/	3.2	29	-14	-18	5.4	0.3	/	6.1	-4
CSc1nnc(C(C)c2ncc(C(F)(F)F)cc2Cl)n1C (stereo not given)	-5	?	-4	18	17	-0.2	2.2	-6%	-1.3	13
O=C(COC(=O)c1ccc(NS(=O)(=O)c2cccs2)cc1O)Nc1nc2ccccc2s1	-12	-3.4	-9	-54	-58	-22	0.2	1%	-0.2	26
O=C(O)c1ccccc1NC(=O)c1ccccc1-c1ccccc1C(=O)O	/	1.0	-1	6	-1	-5.3	0.4	/	-3.2	18

Only part of the results is shown; the hit share may differ from the screen's.
